Assay outcomes (PubChem BioAssay)
gsp ag: gsp mutant agonism | AID 624287 | gsp mutant cells, cAMP HTRF, 30 min; control for the full effect not named in the record | 0.13% of 340,000 active | Potency, µM (highest dose often 76.9 µM), for inactives: top-dose activation (cAMP increase), most hits filed as activators; active = well fitted activation curve with a large enough effect; inconclusive = small, poorly fitted or top-dose-only effect, or another doubt; inactive = no such curve, though single readings can be large or run the other way; cell line not stated here;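 note: phosphodiesterase inhibitor Ro 20-1724 added with compounds to block cAMP breakdown; potency is the fitted concentration of half-maximal effect; nearly all actives have a fitted effect of over 60% in size; about a fifth of the inactives were tested at one dose only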
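Cells stably selected in G418 were plated at 2000/well, grown 16-24 hr, then given compounds in DMSO with the PDE inhibitor […] (300 uM solution added) for 30 min at 37C; cAMP was read by HTRF.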
TRPV1 PAM: potentiators of human vanilloid receptor 1 (TRPV1). Q8NER1. TRPV1-expressing cells, Fluo-8 calcium influx, capsaicin EC20 potentiation; host cell line not named in the record; control for the full effect not named in the record. potentiation, % at 8.33 µM. 0.02% of 320,000 active. AID 540277; active means potentiation above 80%; inconclusive means 30% to 80%; inactive means below 30%; note: 0% is about no effect
Target sequence (Q8NER1 whole entry, looked up): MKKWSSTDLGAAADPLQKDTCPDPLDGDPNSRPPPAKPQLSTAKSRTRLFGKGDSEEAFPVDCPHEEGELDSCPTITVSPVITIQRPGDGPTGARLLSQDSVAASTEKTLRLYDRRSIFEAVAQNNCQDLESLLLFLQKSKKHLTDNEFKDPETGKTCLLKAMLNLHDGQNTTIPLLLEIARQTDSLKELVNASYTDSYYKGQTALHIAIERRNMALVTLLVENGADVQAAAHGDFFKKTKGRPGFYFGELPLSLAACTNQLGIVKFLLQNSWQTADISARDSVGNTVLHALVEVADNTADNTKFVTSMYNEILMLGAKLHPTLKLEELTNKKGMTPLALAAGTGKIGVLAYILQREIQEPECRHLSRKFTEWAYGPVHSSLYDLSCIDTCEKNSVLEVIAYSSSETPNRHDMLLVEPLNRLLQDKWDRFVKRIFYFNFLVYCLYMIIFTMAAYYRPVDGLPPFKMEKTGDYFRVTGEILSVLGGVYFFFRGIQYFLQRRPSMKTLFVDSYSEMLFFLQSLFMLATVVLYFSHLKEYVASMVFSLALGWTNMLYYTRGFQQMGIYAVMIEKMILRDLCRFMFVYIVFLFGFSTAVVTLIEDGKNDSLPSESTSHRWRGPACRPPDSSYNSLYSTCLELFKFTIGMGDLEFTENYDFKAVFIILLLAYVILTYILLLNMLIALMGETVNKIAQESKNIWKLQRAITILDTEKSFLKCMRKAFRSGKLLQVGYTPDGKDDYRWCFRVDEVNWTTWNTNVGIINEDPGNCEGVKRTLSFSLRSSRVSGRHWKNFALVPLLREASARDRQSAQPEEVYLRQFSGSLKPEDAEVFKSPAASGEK
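TRPV1-expressing cells were cultured overnight at 35.5C and loaded with Fluo-8 calcium dye for 40 to 90 min at room temperature. After a 10 s baseline, compound was added and calcium influx was read kinetically for 3 min (ex 480/em 520 nm).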
gsp antag: antagonists of gsp mutant (McCune-Albright syndrome); gsp-mutant cells, cAMP HTRF, 30 min; control for the full effect not named in the record; Potency, µM (titrated, usually from 76.9 µM), for the others: top-dose activity change, negative = inhibition, most hits filed as inhibitors; 0.4% of 340,000 active; active = falling curve of any shape with a large fitted effect; inconclusive = falling curve, mostly with a smaller effect; inactive = flat or rising curve; cell line not stated here;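 note: intracellular cAMP measured with PDE inhibitor Ro 20-1724 present during compound exposure; potency is the fitted concentration of half-maximal effect; % is set by controls: 0 for no effect and ±100 for the full control effect; nearly all actives have a fitted effect of over 65% in size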
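Measurement of cellular cAMP by homogeneous time-resolved fluorescence following a 30 min compound exposure at 37C. The PDE inhibitor […] was present throughout; the assay buffer was DPBS with 0.05% BSA and 0.005% Tween 20.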
ClpP mod: qHTS Assay for Activators of ClpP; purified B. subtilis ClpP, FRET peptide cleavage, 20 min; Potency, µM (titrated, usually from 57.5 µM), inactives show top-dose activity change, negative = active; 1.9% of 340,000 active; AID 651965, 2013; active = well fitted falling curve with a large enough effect; inconclusive = small, poorly fitted or top-dose-only effect; inactive = no such curve, though single readings can be large or run the other way; note: potency is the fitted concentration of half-maximal effect; the source files actives as falling curves though it sought activators and does not explain the sign; nearly all actives have a fitted effect of over 65% in size; many hits overshoot -100%
Target sequence (P80244 whole entry, looked up): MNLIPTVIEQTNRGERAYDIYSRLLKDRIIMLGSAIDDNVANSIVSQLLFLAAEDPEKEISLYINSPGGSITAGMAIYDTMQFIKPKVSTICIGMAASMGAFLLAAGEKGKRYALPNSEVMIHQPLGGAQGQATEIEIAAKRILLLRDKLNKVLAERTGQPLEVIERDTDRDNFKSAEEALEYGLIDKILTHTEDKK
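Buffer: 100 mM Tris/HCl pH8, 100 mM KCl, 0.05% low protease BSA, 2.5% glycerol, 0.01% Tween-20. ClpP 10 microg/mL final; 20 min RT; delta FRET normalized to ADEP and DMSO controls.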
Menin-MLL FL inh: menin-MLL binding inhibition, fluorescein peptide | Fluorescence polarization, fluorescein-MLL peptide displacement from menin | FP activity change, % at 61.4 µM | 290,000 tested, under 10 active | AID 1766; inconclusive = falling polarisation curve, or a change in total fluorescence; inactive = total fluorescence flat and polarisation flat or rising; no compound was filed as active; the % refers to the polarisation; negative = inhibition;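 note: % of control where 0% means no effect; inhibitors lower the polarisation; unlabelled MLL peptide was the positive control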
TRPML1 blocker: blocks the human TRPML1 channel | 0.02% of 390,000 active | TRPML1-inducible cells, Ca2+ dye fluorescence, FDSS; hits give low values; inhibition of EC80 agonist-evoked calcium signal | Q9GZU1 | activity change, negative = inhibition, % (test concentration not listed); in the data active means activity change below about -50%; inconclusive means about -30% to -50%; inactive means above about -30%;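 note: stimulus is agonist 54-4 at its EC80 concentration; % is set by controls: 0 for no effect and ±100 for the full control effect; compound concentration not given in the record; the text of the record puts the active cut at -80%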
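Calcium fluorescence in TRPML1-DL cells induced overnight with Tet: a 110 s read after compound pin addition, then a 110 s antagonist read after challenge with 54-4 at 4 uM final (EC80).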
Sfp inh: Sfp phosphopantetheinyl transferase inhibition; Q9F4F7; Biochemical Sfp PPTase activity, qHTS; Potency, µM, inactives show max response, negative = inhibition, actives largely listed as inhibitors; 3.5% of 310,000 active; AID 1490; active = well fitted inhibition curve with a large enough effect; inconclusive = small, poorly fitted or top-dose-only effect, or another doubt; inactive = no such curve, though single readings can be large or run the other way;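 note: the enzyme is Sfp with the accession as filed and its product quenches rhodamine fluorescence; potency is the fitted concentration of half-maximal effect; 0% = enzyme reaction without inhibitor and -100% = no enzyme wells; top concentration of the series not given in the record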
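Step 1, compound plus 15 nM Sfp-PPTase, 15 min, room temperature. Step 2, add rhodamine-CoA (5 uM) and BHQ-2-YbbR (12.5 uM). Step 3, read 525/598 nm fluorescence at 0 and 30 min.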
Numbers without * were called inactive; ? = inconclusive; . = not tested or not shown; [ ] = dose if it differs, or a comment. Outcome played no part in choosing rows; 4.9% or so of the library scored in one or more.

entry	mol	gsp ag	TRPV1 PAM	gsp antag	ClpP mod	Menin-MLL FL inh	TRPML1 blocker	Sfp inh
1	CC1CCCCN1C(=O)c1cc(-c2ccc3c(c2)OCO3)on1 (stereo not given)	15.5%[15.4 µM]	-10.3	2.0%	.	4.4	-4.6	-17.8%
2	Cc1ccccc1S(=O)(=O)Cc1ccc(C(=O)NCCCOC(C)C)o1	3.2%	16.9	-4.3%	-1.5%	0.2	-9.4	-0.3%
3	COc1ccc(-n2c(=S)[nH]c3cc(C(=O)NCCCN4CCOCC4)ccc3c2=O)cc1OC	-5.5%[15.4 µM]	21.2	-3.7%	0.6%	-3.8	10.1	-22.0%
4	COc1ccccc1NC(=O)c1cc2ccc(O)cc2o/c1=N\O	2.4%	12.0	11.5%	0.7%	?	-8.0	-10.3%
5	COC(=O)c1ccccc1Oc1nc(Cl)cc(OC)n1	-25.3%	0.8	1.5%	2.0%	7.9	-4.8	8.2%
6	Cc1cc(/C=N/NC(=O)c2cc3ccccc3o2)c(C)n1C	?	-8.9	-4.8%	-1.8%	7.6	-19.1	7.4%
7	CC(C)(C)OC(=O)CNC(=O)c1nc[nH]c1C(=O)N1CCN(C(=O)OC(C)(C)C)CC1	.	12.7	10.3%	0.6%	4.3	43.4	13.3%
8	Cc1c(CCO)c(=O)n(-c2ccccc2)n1S(=O)(=O)c1ccc(Cl)cc1	-44.1%[inhibitor]	-29.0	-0.2%	-1.4%	-0.3	-0.2	-6.9%
9	CC(=O)Nc1ccc2nc(SCC(=O)Nc3ccc(N4CCOCC4)c(Cl)c3)sc2c1	-7.7%	-2.5	-25.0%	1.9%	11.0	6.7	-28.8%
10	Cc1cc(C)c(S(N)(=O)=O)c(C)c1N(C)S(=O)(=O)c1ccccc1	-17.0%	-0.2	0.5%	.	-5.1	-7.8	1.1%
11	CN(CC(=O)Nc1cccc(F)c1)C(=O)CN1C(=O)C2CC=CCC2C1=O (stereo not given)	-19.2%	-4.6	8.5%	1.2%	.	-6.2	.
12	COc1cccc(C2C3=C(Nc4[nH]n(-c5ccccc5)c(=O)c42)c2ccccc2C3=O)c1 (stereo not given)	.	-6.7	.	.	2.2	.	-21.3%
13	C=CCN(CC=C)C(=O)Nc1cc(Cl)ccc1OC	-2.2%	-4.6	2.0%	1.4%	8.3	-4.4	6.7%
14	O=Cc1cccnc1SCc1ccccc1	?	.	6.5%	.	.	-12.1	.
15	CC(=O)c1c(N2CCOCC2)nc(=S)n(-c2cc(C)ccc2C)c1C	-8.2%	24.6	3.9%	0.2%	4.3	-6.3	?
16	O=C(NCCCCNC(=O)c1ccccc1Cl)c1ccccc1Cl	-68.3%[inhibitor]	?	-1.3%	.	-2.4	-4.2	16.8%
17	CCO/C=C/C(O)(CNC(=O)c1ccc(C(C)(C)C)cc1)C(F)(F)F (stereo not given)	-1.9%	-1.9	6.4%	0.6%	11.2	10.1	6.1%
18	CCC(Sc1nc2ccccc2o1)C(=O)Nc1nnc(C)s1 (stereo not given)	-11.6%[15.4 µM]	8.1	2.5%	-3.6%	-0.9	67.0	-11.5%
19	Cc1cc(Cl)c2oc(C(=O)N3CCN(C4CCS(=O)(=O)C4)CC3)c(C)c2c1 (stereo not given)	-45.9%[inhibitor]	14.7	-2.5%	-0.4%	4.4	-11.3	11.6%
20	COc1cc2c(cc1NC(=O)COC(=O)Cn1cnc3ccccc31)oc1ccccc12	-5.0%[15.4 µM]	15.6	?	0.2%	0.5	8.1	-6.4%
21	O=C(NC1CCCCC1)C(c1ccco1)N(Cc1cccnc1)C(=O)C1COc2ccccc2O1 (stereo not given)	-3.2%	6.1	-4.2%	-1.5%	0.1	-5.2	7.4%
22	O=C1C(Cc2ccccc2)Nc2ncnc(N3CCN(c4ccccc4)CC3)c2N1Cc1ccccc1 (stereo not given)	.	-6.3	-10.7%	-3.9%	.	-6.0	.
23	CCOC(=O)c1ccc(N/C(=N\S(=O)(=O)c2ccc(F)cc2F)c2ccccc2)cc1	7.8%	5.0	-19.0%	-2.0%	10.7	-6.0	26.3%
24	Cc1cccc(CCNC(=O)CCS(=O)(=O)c2ccc3nc(C)sc3c2)c1	-17.0%	-8.2	5.3%	-1.9%	-2.1	-5.5	-1.4%
25	Cc1sc2ncnc(SCC(=O)N(C)C3CCS(=O)(=O)C3)c2c1C (stereo not given)	27.4%[15.4 µM]	4.7	7.5%	-2.1%	-1.6	-8.8	10.7%
26	Cc1ccc2c(c1)N(C(C)C(=O)NCc1ccccn1)C(=O)CO2 (stereo not given)	13.1%	0.7	0.6%	0.3%	6.3	.	-0.7%
27	Cc1cc(OCC(O)CNC(C)c2ccccc2)ccc1C(C)C (stereo not given)	-3.7%[15.4 µM]	-5.0	8.2%	1.1%	1.5	14.8	-9.7%
28	CCc1nc(C(N)=O)c2[nH]c(=O)n(-c3ccc(OC)cc3OC)c2n1	-4.5%	-4.8	-4.0%	-1.7%	-0.1	-1.1	9.5%
29	CC(C)CC(C(=O)OCC(=O)c1c(N)n(C)c(=O)n(C)c1=O)N1C(=O)C2CC=CCC2C1=O (stereo not given)	-3.9%[15.4 µM]	-5.4	11.6%	-1.1%	-0.1	-1.5	8.6%
30	O=C(c1cc2cc(F)ccc2[nH]1)N1CCc2ccccc21	?	12.8	12.2%	-3.1%	1.3	-0.5	11.8%
31	c1ccc2nc(SCc3cn4ccccc4n3)cnc2c1	?	-7.2	8.6%	-1.3%	-1.0	13.3	2.5%
32	CN(C)S(=O)(=O)c1cccc(NC(=O)c2cccc(S(=O)(=O)N3CCCCCC3)c2)c1	-0.8%	6.4	?	-4.0%	.	7.5	.
33	CC(=O)Nc1sc2c(c1C#N)CCC2	-36.4%[inhibitor]	24.1	10.3%	.	0.2	3.5	-20.9%
34	CN(CC(=O)Nc1c(Cl)cccc1Cl)C(=O)c1ccc(-n2cncn2)c([N+](=O)[O-])c1	-12.4%	-6.3	-17.6%	0.8%	.	-0.3	.
35	O=C(NC1CC1)c1cc(-c2ccc(Br)cc2)nc2ccccc12	28.1%	-0.9	8.9%	-22.3%	.	18.0	.
36	COC(=O)c1c(NC(NC(=O)C(C)(C)C)C(Cl)(Cl)Cl)sc2c1CCC2 (stereo not given)	?	-7.6	?	0.6%	-0.1	?	?
37	Cc1c(C(=O)/C=C/c2ccccc2F)c2cc(O)ccc2n1C	-19.0%	.	.	0.0%	.	-1.3	.
38	Cc1ccc(OCCN(C)C(=O)CC2C(=O)NCCN2CC(C)(C)C)cc1 (stereo not given)	-30.0%	11.3	4.7%	.	-0.1	22.7	-4.8%
39	CC1CCN(c2c([N+](=O)[O-])c(=O)oc3ccccc23)CC1	2.6%[15.4 µM]	-6.6	10.9%	-0.5%	.	31.5	2.6%
40	O=C(O)C1C2C=CC(C2)C1C(=O)NCCc1ccccc1 (stereo not given)	29.7%	4.1	6.6%	0.1%	2.2	31.8	17.7%

Three entries from above, sorted by their value in Sfp inh, falling:
#	molecule	Sfp inh
28	CCc1nc(C(N)=O)c2[nH]c(=O)n(-c3ccc(OC)cc3OC)c2n1	9.5%
38	Cc1ccc(OCCN(C)C(=O)CC2C(=O)NCCN2CC(C)(C)C)cc1 (stereo not given)	-4.8%
27	Cc1cc(OCC(O)CNC(C)c2ccccc2)ccc1C(C)C (stereo not given)	-9.7%

Further structures
entry	mol	gsp ag	TRPV1 PAM	gsp antag	ClpP mod	Menin-MLL FL inh	TRPML1 blocker	Sfp inh
41	CC(OC(=O)C1=Cc2ccccc2OC1)C(=O)NCc1ccco1 (stereo not given)	-71.3%[inhibitor]	6.4	-4.3%	-10.1%	-0.9	20.6	10.7%
42	O=C(NCCc1cccc(Cl)c1)C1CCC(=O)N(Cc2ccc(Cl)cc2)C1 (stereo not given)	23.2%	-10.8	-19.5%	1.3%	.	-3.0	9.1%
43	NC(=O)CNc1ncc(C(F)(F)F)cc1Cl	5.1%	-0.6	8.9%	.	4.7	26.9	17.4%
44	O=C(CSc1nnc(-c2cccs2)n1-c1cccc(Cl)c1)c1cccc2c1OCCO2	8.4%	-6.3	1.9%	-2.8%	4.3	2.0	-3.7%
45	COc1ccc(-c2nnc(SCC(=O)Nc3ccc(Cl)cc3)n2C)cc1	-30.4%[inhibitor]	-1.8	0.6%	-0.9%	0.2	-5.3	14.1%
46	Cc1c(=O)n(OCc2ccccc2)c2ccccc2[n+]1[O-]	-16.9%	4.5	6.6%	-14.6%	3.2	5.1	6.2%
47	CCCCc1c(C)c(C#N)c2[nH]c3ccccc3n2c1=O	-13.1%	-2.5	9.6%	?	1.2	13.5	4.5%
48	Cc1cccc(OCC(=O)NC(C)C(=O)N/N=C/c2c(OCc3ccccc3)ccc3ccccc23)c1 (stereo not given)	0.8%	-34.3	-15.3%	-17.6%	4.4	38.4	-2.9%

Reprinted at random: five entries already listed.
entry	mol	gsp ag	TRPV1 PAM	gsp antag	ClpP mod	Menin-MLL FL inh	TRPML1 blocker	Sfp inh
43	NC(=O)CNc1ncc(C(F)(F)F)cc1Cl	5.1%	-0.6	8.9%	.	4.7	26.9	17.4%
41	CC(OC(=O)C1=Cc2ccccc2OC1)C(=O)NCc1ccco1 (stereo not given)	-71.3%[inhibitor]	6.4	-4.3%	-10.1%	-0.9	20.6	10.7%
47	CCCCc1c(C)c(C#N)c2[nH]c3ccccc3n2c1=O	-13.1%	-2.5	9.6%	?	1.2	13.5	4.5%
48	Cc1cccc(OCC(=O)NC(C)C(=O)N/N=C/c2c(OCc3ccccc3)ccc3ccccc23)c1 (stereo not given)	0.8%	-34.3	-15.3%	-17.6%	4.4	38.4	-2.9%
42	O=C(NCCc1cccc(Cl)c1)C1CCC(=O)N(Cc2ccc(Cl)cc2)C1 (stereo not given)	23.2%	-10.8	-19.5%	1.3%	.	-3.0	9.1%
